Bioassay records as filed in PubChem BioAssay.
Six1-Eya2 blk – Six1/Eya2 interaction inhibition; activity change, % (no concentration beside the values); 360,000 tested, 0.56% active; AlphaScreen GST-Six1/His-Eya2 binding, biochemical; active compounds read low; control for the full effect not named in the record; Q15475+O00167; in the data active = activity change below about -65%; inconclusive = about -30% to -65%; inactive = above about -30%; also: % is scaled to controls: 0 for no effect and ±100 for the full control effect
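Compounds are tested against tagged Six1 and Eya2 proteins bridged by glutathione donor and nickel acceptor beads; after a one-hour incubation at 37 °C without light, AlphaScreen emission is recorded.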
TRPML1 agonist – human mucolipin-1 channel agonism; 410,000 tested, 0.12% active; activation, % (concentration not given with the values); Q9GZU1; TRPML1-expressing cells, Ca2+ dye fluorescence, FDSS; host cell line not named in the record; reference of the full effect not given here; in the data active = activation above about 50%; inconclusive = about 30% to 50%; inactive = below about 30%; also: 0% is about no effect; the text of the record puts the active cut at 80%
Target sequence (Q9GZU1 whole entry, looked up): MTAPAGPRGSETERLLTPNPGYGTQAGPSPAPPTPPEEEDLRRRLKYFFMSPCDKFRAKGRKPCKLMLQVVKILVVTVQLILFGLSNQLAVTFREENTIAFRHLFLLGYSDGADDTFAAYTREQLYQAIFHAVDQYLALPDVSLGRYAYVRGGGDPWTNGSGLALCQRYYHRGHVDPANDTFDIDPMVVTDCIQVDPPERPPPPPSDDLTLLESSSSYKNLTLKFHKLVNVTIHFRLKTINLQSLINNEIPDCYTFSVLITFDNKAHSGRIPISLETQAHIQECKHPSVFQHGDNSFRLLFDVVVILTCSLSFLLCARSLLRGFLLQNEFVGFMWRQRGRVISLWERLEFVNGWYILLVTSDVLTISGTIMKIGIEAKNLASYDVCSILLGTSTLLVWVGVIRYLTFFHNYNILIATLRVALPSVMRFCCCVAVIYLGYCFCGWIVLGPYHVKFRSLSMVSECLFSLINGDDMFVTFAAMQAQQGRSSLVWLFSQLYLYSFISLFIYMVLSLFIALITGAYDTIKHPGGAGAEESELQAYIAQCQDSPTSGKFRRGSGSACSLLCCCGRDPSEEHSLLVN
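In this qHTS format, compounds were pin-transferred onto Ca8-dye-loaded TRPML1-DL cells induced with Tet overnight, and intracellular Ca2+ fluorescence was recorded kinetically for 110 s after a 10 s baseline. A subsequent 4uM final 54-4 (EC80) addition followed by a second 110 s read served as the antagonist phase.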
D2 agonist – agonists of human D2 dopamine receptor (beta-arrestin); activation, % (no concentration beside the values); DiscoveRx PathHunter D2 beta-arrestin, luminescence, 90 min; 100% = 57 uM dopamine signal; 360,000 tested, 0.084% active; in the data active = activation above about 40%; inconclusive = about 15% to 40%; inactive = below about 15%; also: compound concentration not given in the record; the text of the record calls up to 30% inactive
Target sequence (P14416 whole entry, looked up): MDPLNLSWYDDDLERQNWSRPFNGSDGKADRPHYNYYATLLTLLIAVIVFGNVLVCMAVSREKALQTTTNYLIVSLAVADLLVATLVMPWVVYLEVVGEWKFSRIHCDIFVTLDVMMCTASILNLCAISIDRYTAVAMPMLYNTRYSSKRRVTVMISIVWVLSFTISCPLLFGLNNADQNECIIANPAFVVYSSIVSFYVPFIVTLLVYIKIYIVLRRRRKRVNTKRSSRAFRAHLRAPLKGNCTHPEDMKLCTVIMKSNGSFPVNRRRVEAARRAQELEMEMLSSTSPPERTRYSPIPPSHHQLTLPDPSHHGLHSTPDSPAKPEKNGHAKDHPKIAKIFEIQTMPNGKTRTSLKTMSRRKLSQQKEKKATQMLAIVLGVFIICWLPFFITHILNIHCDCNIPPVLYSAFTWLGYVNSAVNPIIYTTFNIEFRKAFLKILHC
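Agonist mode: compounds alone added to overnight-plated D2 PathHunter cells for 90 min at 37 C, with 57 uM final dopamine (EC100) defining full response. Beta-arrestin recruitment detected by chemiluminescent reagent, read after 1 h at ambient temperature.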
PINK1 expr mod – modulators of PINK1 expression; PINK1 immunofluorescence, high-content cytometry, 24 h; Potency, µM (series often up to 76.6 µM), for inactives: at the highest dose activation (PINK1 increase), actives largely listed as activators; 410,000 tested, 0.2% active; AID 624263; active = well fitted activation curve with a large enough effect; inconclusive = small, poorly fitted or top-dose-only effect; inactive = flat fitted curve, though single readings scatter; cell line not stated here;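 also: potency is read from the fitted curve at half-maximal effect; % of control where 0% means no effect; nearly all actives have a fitted effect of over 65% in size; a mitochondrial uncoupler was the plate control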
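Decision-based qHTS: stable cells, 24 h exposure to five compound concentrations, CCCP as control. Fixed cells stained for PINK1 plus nuclear, mitochondrial and cell markers, cytometer read.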
CtBP-E1A inh – inhibitors of CtBP/E1A interaction. AID 651724. 340,000 tested, 0.49% active. AlphaScreen GST-E1A/His-CtBP binding, 1536-well; active compounds read low; control for the full effect not named in the record. activity change, % (no concentration beside the values); in the data active means activity change below about -65%; inconclusive means about -30% to -65%; inactive means above about -30%; also: % is scaled to controls: 0 for no effect and ±100 for the full control effect
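GST-E1A and His-tagged CtBP (125 nM each as 5X stock) were preincubated with pin-transferred compound for 2 h at 37 °C in the dark, then glutathione donor and nickel acceptor beads were added for 1 h before AlphaScreen reading.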
TRPML1 blocker – inhibitors of human TRPML1 channel; TRPML1-inducible cells, Ca2+ dye fluorescence, FDSS; active compounds read low; inhibition of EC80 agonist-evoked calcium signal; activity change, negative = inhibition, % (no concentration beside the values); 390,000 tested, 0.02% active; in the data active means activity change below about -50%; inconclusive means about -30% to -50%; inactive means above about -30%;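 also: stimulus is agonist 54-4 at its EC80 concentration; % is scaled to controls: 0 for no effect and ±100 for the full control effect; compound concentration not given in the record; the text of the record puts the active cut at -80%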
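TRPML1-DL cells, Tet-induced overnight (~16 h, 37 °C) at 1,500 cells/well, were loaded with Ca8 no-wash dye plus quencher for 45-90 min at room temperature. Compounds were pinned during FDSS kinetic reading; agonist 54-4 at EC80 (4 uM final) then added.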
* hit, by the source's call; ? = inconclusive; · = no result given; & = joins results of further samples; [ ] = another dose, or the depositor's remark.

Results follow in this order: D2 agonist, Six1-Eya2 blk, TRPML1 blocker, CtBP-E1A inh, PINK1 expr mod, TRPML1 agonist
> Cc1cc(O)cc(=O)n1CCc1ccccc1
  2.1, -5.4, -0.8, ·, 0.3%, -0.6
> Cc1ccc(S(=O)(=O)c2nc(S(C)(=O)=O)sc2N2CCCC2)cc1
  4.4, 1.7, 6.0, 0.9, 0.9%, -0.6
> CSc1nnc(CNS(=O)(=O)c2ccc(Cl)cc2)n1C
  2.0, 10.2, 32.2, -3.1, 0.8%, 0.4
> COc1ccccc1-c1cc(N)n(S(=O)(=O)c2cccc3nsnc23)n1
  5.7, -20.9, 19.2, -15.6, -0.4%, 2.2
> COc1cccc(/C=C2\C(=O)N(c3cccc(C)c3)C(=O)c3ccccc32)c1
  1.0, 1.7, 21.9, 5.0, 13.1%, 0.9
> CCS(=O)(=O)N1CCC(C(=O)Nc2cccc(F)c2)CC1
  4.4, -1.2, 2.9, ·, 1.6%, -0.4
> CN(C)CCCN(C(=O)c1ccc(S(=O)(=O)N2CCCCCC2)cc1)c1nc2ccc(Br)cc2s1
  -9.0, -28.9, 4.5, ?, -1.9%, 2.8
> COc1ccc(NC(=O)C[C@H]2C(=O)N(CCc3ccccc3)C[C@@H]2C)cc1
  -1.4, 7.1, 2.0, -3.1, 1.1%, 1.1
> O=C(CSc1nnc2ccccn12)c1ccc2c(c1)OCCO2
  -3.3, -9.9, 9.6, -3.0, -2.2%, -0.1
> NS(=O)(=O)c1ccc(CCNC(=O)c2ccc(Cl)c(S(=O)(=O)N3CCCCCC3)c2)cc1
  0.1, -5.6, -12.6, 19.4, 1.5%, 1.0
> N/C(Cc1ccc(Cl)cc1)=N\OC(=O)c1cccc2ccccc12
  ?, 26.2, 11.7, 32.8, -8.0%[38.3 µM], 1.6
> Cc1ccnc(NC(=S)NC(=O)/C=C/c2ccco2)c1
  -3.4, -3.6, 5.4, 0.1, 18.4%, 0.6
> COc1cc(NC(=O)CSc2nnc3ccc(-c4ccncc4)nn23)cc(OC)c1
  0.4, -0.3, 0.5, -18.6, 0.4%, -0.9
> CC(=O)c1c(C)[nH]c(C(=O)COC(=O)c2cc(C)oc2C)c1C
  -4.9, -13.9, -13.4, -22.8, 0.1%, 2.4
> COC(=O)C(C(=O)OC)C(C[N+](=O)[O-])c1ccc(O)c(OC)c1 (centres undefined)
  3.0, 6.1, -10.0, -4.2, ?, 0.4
> COCCNC(=O)CSc1nc2ccccc2nc1Cc1ccc(C)cc1
  ·, ·, -20.5, ·, 3.0%, 0.1
> CN(C)CCCOC(=O)Cc1ccc(Cl)cc1
  -0.5, -0.9, -10.2, 5.2, 1.3%, -0.5
> Cc1ccc(NC(=O)CN(C)C(=O)c2cc3ccccc3o2)cc1
  0.4, 4.7, 26.0, 7.8, 15.9%, -0.8
> CSc1nnc(C)c(=O)n1COC(=O)COc1ccc(Cl)cc1Cl
  1.6, 1.1, 15.5, 12.3, -0.3%, 0.0
> O=C(NC1CCCC1)C(c1ccncc1)N(C(=O)Cc1cccs1)c1ccccc1 (centres undefined)
  -2.5, 11.1, -4.2, 4.3, 0.1%, 1.5
> COc1ccccc1C(=O)N/C(=C/c1ccc(Br)cc1)C(=O)NCC(=O)O
  0.3, -4.5, -12.8, -3.2, -2.3%[38.3 µM], -0.1
> COC(=O)C1=C(C)N(CCCC(=O)O)C(=O)NC1c1cccs1 (centres undefined)
  -1.4, 0.2, 7.8, 0.0, 0.2%, -0.9
> O=C(c1ccco1)N1CCN(C(c2ccccc2)c2nnnn2C2CCCC2)CC1 (centres undefined)
  -1.1, 4.6, -13.5, -11.7, 0.8%, 1.2
> Cc1ccc(Cn2c(CCNC(=O)c3cccc(C)c3)nc3ccccc32)cc1
  ·, ·, 35.6, ·, 19.5%, 2.6
> CCOC(=O)C(Cc1ccccc1)NC(=O)CCc1c(C)nc2ncnn2c1C (centres undefined)
  -5.2, 4.7, -7.1, 1.9, -0.2%, -1.3
> CN(C)c1ccc(C2Nc3ccccc3C(=O)N2NS(=O)(=O)c2ccccc2)cc1 (centres undefined)
  -2.6, -1.3, -0.7, 16.9, 2.2%, 1.5
> C[C@H](CO)N1C[C@H](C)[C@H](CN(C)S(=O)(=O)c2ccccc2)Oc2ccc(NC(=O)NC3CCCCC3)cc2CC1=O
  -0.5, 10.1, -2.3, -0.5, 0.2%, -0.4
> Cc1ccccc1OC(=O)Cn1c(C(F)(F)F)nc2ccccc21
  1.8, 6.1, 24.0, 15.1, -1.0%, 0.8
> O=C(c1cc2cc(Br)ccc2o1)N1CCCC1
  4.6, 2.1, -3.6, 0.6, 0.3%, 3.8
> S=C1NCN(Cc2cccnc2)CN1c1cccc2ccccc12
  2.2, 2.5, 9.8, -1.5, -0.9%, 0.0
> Cn1c(=O)c(NC2CCCCC2)c2c3c(cccc31)C(=O)c1ccccc1-2
  4.1, 55.2, ?, 19.6, 15.3%, 100.0*
> Cc1ccc(-n2nnnc2-c2cnc(N3CCCC3)nc2C(F)(F)F)cc1
  -2.5, 15.3, 4.9, 19.0, -3.0%, 11.2
> O=C(Cn1nc2sc3ccccc3n2c(=O)c1=O)c1ccc(Cl)cc1
  2.7, 1.4, 32.0, 0.8, -1.6%, 1.0
> CCCOc1ccc(/C=c2\sc3ncnn3c2=O)cc1
  0.5, -3.2, -5.6, 1.1, 4.1%, 0.2
> O=C(C1=C[C@H](C2CCCCC2)C[C@H](OCCCCO)O1)N1CCN(Cc2ccc3c(c2)OCO3)CC1
  -1.9, -18.2, 4.0, ?, -1.3%, 0.6
> NC(=O)CSc1nnc(NC(=O)c2ccc(S(=O)(=O)N3CCCCC3)cc2)s1
  -3.0, 25.5, -20.6, 0.0, 2.5%, 1.4
> Cc1ccccc1C1CC(=O)NC2=C1C(=O)CCC2 (centres undefined)
  0.2, 18.7, -13.5, -2.0, -1.5%, 0.1
> Cc1ccn2c(=O)c(NC(=O)c3cccc4ccccc34)c(C)nc2c1
  -4.5, -6.4, 12.5, 3.1, 4.3%, -0.3
> CCOC(=O)c1ccc(NC(=O)CSc2nnc(-c3ccncc3)n2C)cc1
  1.5, 5.7, 6.8, 3.9, 3.6%, -1.0
> COc1cc(C(=O)OC(C)C(=O)Nc2ccc3c(c2)OCCO3)cc(OC)c1OC (centres undefined)
  -7.3, -19.9, 0.8, 1.5, 4.9%, 0.4
> Cc1ccc(NS(=O)(=O)c2ccc(-n3cccn3)cc2)cc1Cl
  -0.5, 2.8, -9.2&-5.9, 6.9, 7.0%&5.5%, 0.3&0.7
> COc1ccc(S(=O)(=O)c2cnc3ccccc3n2)cc1
  -0.9, -0.4, -1.2, 1.3, -2.9%, -0.6
> Cc1nnc(SCC(=O)N2CCCC2)n1-c1ccc(F)cc1
  -5.6, 3.5, -0.3, -1.9, -0.5%, 0.0
> COc1cnc(-c2ccccn2)nc1Oc1ccccc1
  -5.6, ?, 7.4, -66.6*, 1.3%, -0.6
> FC(F)(F)c1nnc(-c2ccccc2)nc1Sc1ccc(Cl)cc1
  -2.8, -2.1, 11.2, 9.0, 0.7%, 0.6
> Cc1cc(N2CCC(C)CC2)n2nc(C)c(-c3ccccc3)c2n1
  0.7, -1.4, 22.0, -1.6, -0.2%, 1.7
> Cc1ccc(CCNC(=O)c2cc(C)nc3c2c(C)nn3-c2ccc(C)cc2)cc1
  ·, ·, 37.9, ·, 1.1%, -0.8
> CCC/C(=C1/c2ccccc2C(=O)N1c1ccccc1)c1ccc(O[C@@H]2CCCCO2)cc1
  -0.3, 4.3, 5.4, 12.5, 6.3%, 0.0
> CC(OC(=O)c1cc(Br)ccc1O)C(=O)NC1(C#N)CCCCC1 (centres undefined)
  -3.8, -4.1, 0.1, 4.0, 8.8%, 0.3
> O=C(Nc1ccnn1C1CCN(Cc2ccccc2OC(F)F)CC1)c1cccc(F)c1
  -3.1, -4.8, 22.1, 4.1, 0.8%, 0.3
> CCN1C(=O)CSc2ccc(C(=O)NC3CCCCC3)cc21
  -2.9, 1.8, 9.9, 3.6, 3.7%[38.3 µM], -0.2
> O=C(CNS(=O)(=O)c1ccccc1)NCC(=O)OCc1ccc(Cl)cc1
  0.1, 2.9, -2.2, 9.1, 0.3%, 0.0
> O=C(Nc1ccc2ccccc2c1)c1ccc(NS(=O)(=O)c2ccc(Br)s2)cc1
  -1.2, 0.5, 0.4, -14.7, -1.7%, 0.3
> Cc1cccc(-n2nnnc2SCC(=O)NC2CCCC2)c1
  -1.0, -2.2, -6.5, -0.2, 1.1%, 1.6
> COC(=O)C(NS(=O)(=O)c1ccccc1Br)C(C)C (centres undefined)
  -4.8, 4.9, 13.5&-5.6, -20.3, -0.8%, 1.0&1.1
> COc1cccc2cc(C(=O)CS(=O)(=O)c3ccc(Cl)cc3)c(=O)oc12
  3.8, -10.0, 4.4, ·, 0.8%, 0.5
> CCn1cc(CN2CCC(C(=O)Nc3cccc(-c4cccc(OC)c4)c3)CC2)cn1
  3.3, 0.7, -5.0, 23.9, 1.8%, 0.1
> Cc1cc(NC(=O)COC(=O)CNC(=O)c2cccs2)c([N+](=O)[O-])cc1C
  -0.9, 0.3, 21.1, -10.7, 0.2%, -0.4
> Cc1ccc(C2OC3=C(C(=O)CC(C)(C)C3)C(N)=C2C#N)o1 (centres undefined)
  -1.5, 5.5, 2.2, 2.4, 2.6%, -1.4
> O=C(OCC#CCSc1nnc(-c2ccccc2)o1)c1cc2ccccc2o1
  -3.4, -2.2, 3.7, -4.0, -0.3%, 0.0

(listing goes on)
Results follow in this order: D2 agonist, Six1-Eya2 blk, TRPML1 blocker, CtBP-E1A inh, PINK1 expr mod, TRPML1 agonist
> COc1ccc(C)cc1S(=O)(=O)N1CCN(c2cccc(C(F)(F)F)c2)CC1
  -4.7, 1.8, 1.5, 0.7, 3.2%, -1.0
> CCC(C)c1ccccc1N=Cc1ccc2c(c1)OCO2 (centres undefined)
  0.7, 2.9, -6.0, 2.8, 1.1%, 0.4
> CCOC(=O)C1=NN(c2ccccc2)C(c2ccccc2)CC1=O (centres undefined)
  -1.1, -1.9, -16.0, -6.1, -0.2%, 0.8
> COc1ccc(-c2cc(C(=O)Nc3c(C)n(C)n(-c4ccccc4)c3=O)c3ccccc3n2)cc1
  2.2, 5.7, 2.3, 18.7, -2.1%, 0.4
> COc1cccc(CC(=O)OCC(=O)NCC(=O)Nc2cccc(C)c2C)c1
  -2.5, 7.6, -2.8, -23.6, -7.9%, 0.3
> N#Cc1nc(-c2ccc(F)cc2)oc1N1CCCC1
  -1.0, 4.0, 22.3, -6.3, -0.4%, 0.2
> CCSc1nn(CC(=O)Nc2ccc(C(=O)OC)cc2)c(N)c1S(=O)(=O)c1ccc(C)cc1
  ·, ·, -6.6, ·, 0.3%, -0.3
> CCOc1ccc(NS(=O)(=O)c2ccc(OCC(=O)N3CCCC3)cc2)cc1
  2.2, 2.9, -6.9, -2.5, ·, 3.2
> Cc1cc(C)cc(-n2nnc(-c3nc(-c4ccccc4F)no3)c2C)c1
  ·, ·, -10.4, ·, 1.3%, -0.6
> CCOc1ccc(N(C(C)=O)C2C=CS(=O)(=O)C2)cc1 (centres undefined)
  -4.2, -2.9, -5.2, 1.7, 4.5%, -0.4
> O=C(NC1=NCCS1)c1ccccc1OCc1ccc(F)cc1
  -6.3, 7.3, -7.1, -0.7, 6.4%, 2.0
